# Source: PubChem
# RBBP9 inh = inhibitors of human serine hydrolase RBBP9 | O75884 | recombinant RBBP9, FP-Rh probe fluorescence polarization | inhibition, % at 7.94 µM | 0.2% of 220,000 active;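 active means inhibition above the campaign mean of all tested compounds plus 3 SD, cut at about 14% in these data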;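 further: plate controls were DMSO wells with RBBP9 for no effect and wells lacking RBBP9 protein for full effect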
#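 Controls: DMSO-treated enzyme wells and wells lacking RBBP9 | Material: RBBP9 protein | Technique: Fluorescence polarization | Replication: Single well per compound, no replicates | Buffer or medium: Tris-NaCl-Pluronic buffer, pH 8.0 | Timing: 30 min compound preincubation, 45 min probe labeling, 25 °C | Read-out basis: Percent inhibition from mP, scaled between DMSO and no-protein wells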
# MDM2 E3 inh = Mdm2 E3 ligase (human) inhibition; cell-based MDM2 ubiquitination luciferase reporter, 2 h; 0 = plate control, 100 = twice control, blank-subtracted; signal enhancement, % at 5 µM; 0.11% of 210,000 active; AID 1230;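 active means signal enhancement of 30% or more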;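 further: luminescence tracks abundance of the self-degrading MDM2-luciferase fusion protein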
#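 System: stable MDM2–luciferase fusion reporter cells / Input: 2000 cells seeded into each well / Schedule: 4 h settle plus 2 h compound, 37 °C / Compound: single-point 5 µM / Buffer or medium: cells held in DMEM / Benchmarks: control and blank well means / Evaluation: percent signal gain over controls, blank-subtracted / Measured by: luciferase luminescence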
# NPY2 pot ag = potentiates or activates human NPY-Y2 receptor. P49146. activation, % at 3.6 µM. cells expressing NPY-Y2, potentiator/agonist read-out. 0.45% of 220,000 active; in the data active means activation above about 27%;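 further: cells stimulated with NPY near EC25 plus isoproterenol at EC100; 0% = vehicle plus submaximal agonist and 100% = vehicle plus saturating agonist; some results beyond the cut were filed as inactive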
# NPY1 pot ag = potentiates or activates human NPY-Y1 receptor; activation, % at 3.6 µM; P25929; AID 1304; NPY-Y1 expressing cells, potentiator/agonist activation; 0.37% of 220,000 active; in the data active means activation above about 33%, passing the limit was not always enough;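 further: cells stimulated with NPY at EC10 then isoproterenol at EC100; 0% = low agonist plus stimulus and 100% = saturating agonist plus stimulus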
# Target sequence (P25929 whole entry, looked up): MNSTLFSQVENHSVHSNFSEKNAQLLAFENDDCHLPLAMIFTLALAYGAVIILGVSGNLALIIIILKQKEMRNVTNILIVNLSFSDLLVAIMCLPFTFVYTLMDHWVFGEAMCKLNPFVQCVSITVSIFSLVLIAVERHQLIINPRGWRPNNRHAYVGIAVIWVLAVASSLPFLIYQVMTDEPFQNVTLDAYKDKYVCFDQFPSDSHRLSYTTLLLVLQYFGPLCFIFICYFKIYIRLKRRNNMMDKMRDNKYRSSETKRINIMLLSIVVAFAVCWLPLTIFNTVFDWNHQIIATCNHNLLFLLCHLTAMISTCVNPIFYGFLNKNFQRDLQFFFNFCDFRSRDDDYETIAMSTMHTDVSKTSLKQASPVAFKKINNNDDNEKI
# NPY-Y1 antag = antagonists of human neuropeptide Y receptor Y1; inhibition, % at 3.6 µM; 1% of 200,000 active; HEK293-CNG Y1 cells, membrane potential fluorescence; NPY at EC95, then isoproterenol; P25929;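 active means inhibition above the campaign mean inhibition of all tested compounds plus 3 SD, cut at about 20% in these data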;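 further: 0% = DMSO wells given NPY plus isoproterenol and 100% = isoproterenol alone without NPY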
#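 Material: HEK293 Y1/CNG channel cell line | Also added: NPY (25 nM), isoproterenol (1 µM), Ro 20-1724 (25 µM) | Compound: One concentration, 3.6 µM, in 0.4% DMSO | Schedule: 3 h dye uptake, 1 h room-temperature compound, 45 min post-isoproterenol | Signal: Membrane-potential fluorescent dye readout | Read-out: % inhibition of NPY effect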
# p97 ATPase inh = inhibitors of human p97 ATPase; inhibition, % at 8 µM; AID 1481; recombinant p97 ATPase, Kinase-Glo ATP luminescence, 3 h; 0.42% of 220,000 active; in the data active means inhibition above about 15%;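 further: 0% = DMSO vehicle and 100% = wells lacking enzyme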
# Hck-Nef inh = blocks Nef-activated human Hck kinase. P08631. inhibition, % at 20 µM. 0.68% of 220,000 active. Recombinant Hck-YEEI plus Nef, Z-Lyte FRET kinase assay;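 active means Hck-Nef kinase inhibition above about 50%, limit read from the data; inactive means inhibition below that limit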;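 further: 0% = DMSO with Hck plus Nef and 100% = Hck alone without Nef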
# Target sequence (P08631 whole entry, looked up): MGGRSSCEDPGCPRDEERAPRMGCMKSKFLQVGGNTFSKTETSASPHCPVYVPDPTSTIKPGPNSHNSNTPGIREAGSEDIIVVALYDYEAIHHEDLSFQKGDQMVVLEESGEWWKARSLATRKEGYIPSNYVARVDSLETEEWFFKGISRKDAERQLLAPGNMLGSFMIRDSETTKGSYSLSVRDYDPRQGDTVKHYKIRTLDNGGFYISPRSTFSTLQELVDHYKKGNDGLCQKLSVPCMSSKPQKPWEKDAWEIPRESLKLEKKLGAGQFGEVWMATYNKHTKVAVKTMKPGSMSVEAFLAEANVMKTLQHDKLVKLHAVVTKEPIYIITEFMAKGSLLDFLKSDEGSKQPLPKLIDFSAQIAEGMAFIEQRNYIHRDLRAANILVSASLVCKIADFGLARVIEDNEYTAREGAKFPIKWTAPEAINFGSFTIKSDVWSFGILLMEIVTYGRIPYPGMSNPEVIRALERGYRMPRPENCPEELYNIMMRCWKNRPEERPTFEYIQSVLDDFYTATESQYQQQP
# * marks the source's active call; other numbers are inactive results; nt = not tested or not shown.
SMILES,RBBP9 inh,MDM2 E3 inh,NPY2 pot ag,NPY1 pot ag,NPY-Y1 antag,p97 ATPase inh,Hck-Nef inh
CCOC(=O)C1=C(NC(=S)NC(=O)c2ccccc2)c2ccccc2CC1(C)C,-11.8,-18.3,-14.8,-4.9,3.4,-2.5,0.5
Cc1nnnn1-c1cccc(C(=O)O)c1,-11.4,-30.3,-13.2,-7.9,1.6,-4.5,-1.7
CCn1c(CNc2ccc(OC)cc2)nnc1SCC(=O)N1CCCc2ccccc21,-11.3,-9.6,-7.3,1.2,-3.8,-11.6,-0.3
CCN(CC)S(=O)(=O)c1ccc(Cl)c(NC(=O)c2ccccc2C)c1,-0.8,-11.3,2.6,13.0,0.0,1.9,-0.6
COc1ccc(S(=O)(=O)N2CCN(CC(=O)Nc3cc(C(F)(F)F)ccc3Cl)CC2)cc1,-12.1,-16.4,8.0,-1.0,1.4,0.9,0.8
Cc1ccc(-c2cccc(OC(=O)c3ccccc3F)c2)cc1,-1.0,-1.8,2.6,12.1,-0.2,0.9,-1.9
Cc1ccc2c(c1)C(CCN)C(=O)N2Cc1ccccc1 (configuration not stated),-1.9,10.4,-11.7,-20.9,13.4,-2.5,0.6
O=C(CCN1C(=O)c2ccccc2C1=O)N1CCN(C2c3ccccc3-c3ccccc32)CC1,0.5,-1.5,9.8,17.0,8.8,2.4,0.0
Cc1ccc(C(=O)NCC(=O)NCC(=O)OCC(=O)c2ccc([N+](=O)[O-])cc2)cc1,-0.2,-0.2,8.0,11.0,1.1,2.0,-0.4
Cc1ccccc1OCC(=O)NNC(=O)Nc1ccc(Cl)cc1,-8.0,6.0,4.1,-20.1,9.9,1.8,2.5
O=C(Nc1cc(C(F)(F)F)cc(C(F)(F)F)c1)c1ccc(Cn2cc(C(F)(F)F)ccc2=O)cc1,-6.5,18.0,-0.6,16.9,2.3,0.4,-0.3
Cc1ccc(-c2nc3ccccc3[nH]2)cc1NC(=O)c1ccc2c(c1)OCO2,-13.3,9.1,-12.9,-7.9,6.8,7.3,1.3
Cc1c(-n2cc(C(=O)c3cc(Cl)ccc3O)cc(C#N)c2=O)c(=O)n(-c2ccccc2)n1C,-12.2,-11.9,-16.1,9.7,-1.1,4.6,0.8
O=C(Nc1cc(Sc2ccccn2)cc([N+](=O)[O-])c1)c1ccc(Cl)cc1,-8.1,-22.1,-4.9,30.3,-2.2,-2.2,1.0
CC1(C)Oc2ccc(NC(=O)c3ccco3)cc2O1,-1.9,-22.8,-7.4,-1.9,8.5,-1.9,-1.1
COc1ccc(C(=O)Nc2cc(OCc3ccccc3)c(Cl)cc2Cl)cc1,-6.1,-10.6,-13.9,-23.2,5.0,-0.7,-0.5
O=C(Cc1ccccc1)N(c1ccc(F)cc1)C1C=CS(=O)(=O)C1 (configuration not stated),-5.0,-5.6,4.3,4.6,2.6,1.2,-0.9
CC(=O)Oc1c(S(=O)(=O)c2ccc(C)cc2)c(C)nn1C(C)(C)C,-4.9,8.0,-1.6,-1.0,-5.4,-1.2,1.5
C=CCNc1cnn(-c2ccc(C)cc2)c(=O)c1Cl,-2.3,-9.1,-5.6,13.1,-3.1,-4.2,2.1
CCOC(=O)c1[nH]c(C)c(CN(CCc2ccccc2)C(=O)CCC(=O)O)c1C,-9.9,-5.8,3.5,-17.9,6.2,1.1,1.1
COC(=O)c1ccc(-n2cncn2)c(F)c1,-10.7,-9.5,2.3,21.7,-0.9,4.8,0.6
COc1ccc(C(=O)OC2CCN(c3ncc(C(F)(F)F)cc3Cl)CC2)cc1,-6.2,4.7,14.7,0.0,18.1,1.1,1.4
O=C(O)CSc1nnc(Cn2c(=O)sc3ccccc32)n1-c1cccc(Cl)c1,-8.6,-33.1,-1.0,-3.8,-3.1,-1.2,-0.1
c1ccc(-c2nc3ccccn3c2NCc2ccc3c(c2)OCO3)cc1,-5.0,-27.4,2.4,-17.2,5.1,2.1,3.7
COc1ccc(OC)c(N2CC(O)=C(c3nc4ccccc4s3)C2=N)c1,-7.6,-5.6,-1.4,-5.8,3.2,1.8,0.5
Cc1nc2ncnn2c(C)c1CCC(=O)NC(C)c1ccc2c(c1)OCCO2 (configuration not stated),0.8,-10.5,17.1,-15.2,-5.6,3.0,1.1
CC(=O)Nc1ccc(-c2cn3cccnc3n2)cc1,5.7,-16.6,-15.4,10.9,2.8,8.3,5.5
Cc1nc2nc(C)c(CCC(=O)NC(C)c3ccc4c(c3)OCCO4)c(C)n2n1 (configuration not stated),-10.3,-23.0,0.5,19.5,-2.3,-5.0,0.0
Cc1cccc(C(=O)NNC(=O)c2cc3cc4ccccc4nc3s2)c1,-7.0,-6.8,3.5,-8.2,-1.6,2.7,-2.4
N#CC1=C(N)OC2=C(C(=O)CC(c3ccco3)C2)C1c1ccc(OCc2c(F)cccc2Cl)cc1 (configuration not stated),-15.2,-5.4,-26.7,63.0*,1.0,5.6,-2.1
CCOC(=O)c1[nH]c2ccccc2c1NC(=O)c1nonc1C,-8.7,-8.9,6.8,-3.9,4.6,-1.8,0.0
CCOC(=O)CN1CC23C=CC(O2)C(C(=O)NC2CCCCC2)C3C1=O (configuration not stated),-4.7,-9.0,2.4,4.0,9.2,0.5,23.1
Cc1ccc(-c2csc(Cc3nc(-c4cc5ccccc5oc4=O)cs3)n2)cc1,-14.7,-8.6,-17.2,-38.5,2.1,-2.4,0.0
Cc1c(OCC(=O)OC(C)C)ccc2c3c(c(=O)oc12)CCC3,-6.6,-14.1,3.9,-16.4,6.9,0.6,15.5
C1CCN(c2nc3nonc3nc2N2CCCC2)C1,-6.5,-2.7,18.0,1.9,-2.9,1.5,5.7
COc1ccc(CCN2CC(O)=C(c3nc(C)cs3)C2=N)cc1OC,2.3,-9.6,0.1,-16.6,-4.0,3.1,-0.4
Cc1sc(CO)c(Sc2ccccc2)c1C(=O)O,-7.1,-12.2,6.9,9.7,6.0,4.0,-0.2
O=C(Nc1nc2ccc(Cl)cc2s1)C1CCCO1 (configuration not stated),-2.8,-5.4,7.6,14.7,-5.0,-6.0,1.2
CCOC(=O)NC(CC(=O)O)c1ccc(OCC)cc1 (configuration not stated),-2.2,2.9,11.2,-22.5,-1.2,4.4,3.3
Cc1ccc(-c2cc(C(=O)N3CCN(c4ccc(F)cc4)CC3)c3ccccc3n2)o1,-4.9,-8.7,-6.0,-28.2,9.6,-1.8,0.1
CCOC(=O)c1[nH]c(C)c(C(=O)N2CCc3ccccc32)c1C,1.9,-12.8,-9.8,-13.9,31.9*,-8.1,-0.6
COc1cc(C(=O)NCC(c2cccnc2)N2CCN(C)CC2)cc(OC)c1OC (configuration not stated),-0.3,-12.8,-1.2,-2.2,2.1,-1.1,-3.1
O=C(CSc1nc2c(c(=O)n1-c1ccc(F)cc1)SCC2)N1CCCC1,-5.6,-1.9,-23.2,5.3,-0.3,0.5,0.0
C=CCn1c(-c2ccc(Cl)cc2)ccc(C#N)c1=O,-8.2,-7.0,-9.3,-41.7,17.8,-7.2,-0.4
CN(C)c1ccc(/C=N/NC(=S)NCc2ccccc2)cc1,-6.8,-15.8,2.8,5.3,5.1,0.9,6.6
O=[N+]([O-])c1ccc(N/N=C\c2cccn2-c2ccccc2)nc1,-1.5,-18.8,24.2,30.2,-2.2,1.9,-0.3
COC(=O)c1cn(NC(=O)C2CCC(C(C)(C)C)CC2)c(=O)c2ccccc12 (configuration not stated),-4.2,-1.8,-10.5,2.2,-6.2,-0.1,0.3
CCC(=O)NC(=S)Nc1ccc(S(=O)(=O)NC(C)=O)cc1,-6.3,-25.6,14.5,34.0,-0.8,3.5,-1.9
CC(=O)N1CC(=O)N(OCc2ccccc2)C1c1ccc(Cl)cc1Cl (configuration not stated),-6.0,-9.2,8.2,15.1,1.7,-0.5,0.8
CCOc1ccc(N2CC(C(=O)NC(C)C)CC2=O)cc1 (configuration not stated),-7.0,0.4,-4.8,6.8,4.1,9.8,1.8
CCCCOc1ncnc2c1[nH]c1ccc(OC)cc12,-8.1,-3.2,5.5,2.1,-1.4,-7.4,0.0
CS(=O)(=O)N1N=C(c2ccc(Br)cc2)CC1c1ccc2c(c1)OCO2 (configuration not stated),-2.7,3.2,5.7,-11.8,3.0,-0.3,-1.9
Cc1cc(C)nc(NS(=O)(=O)c2ccc(N)cc2)n1,4.0,nt,0.3,-6.1,-0.6,6.4,1.4
Fc1ccccc1CNc1cc(Cl)cc(Cl)c1,1.7,-10.7,-19.8,-22.3,4.6,0.2,0.2
COc1ccc(C(=O)O/N=C/c2ccc(S(=O)c3ccc(Cl)cc3)nc2)cc1 (configuration not stated),-8.3,-10.1,-4.9,4.2,1.6,3.9,1.4
CC(C)Oc1ccc(/C(O)=C2/C(=O)C(=O)N(Cc3cccnc3)C2c2ccco2)cc1 (configuration not stated),-7.7,-15.0,-2.0,-6.0,4.6,-2.0,1.4
COC(=O)C1(S(=O)(=O)c2ccc(C)cc2)CCOCC1,-3.2,-6.4,1.2,3.3,1.4,3.6,7.3
Cc1ccc2c(c1)N(CCC(=O)NCCCOC(C)C)C(=O)C(C)O2 (configuration not stated),-1.1,-13.6,6.8,4.8,8.4,3.5,1.4
O=C(N/N=C/c1ccccn1)c1sc2ccccc2c1Cl,-3.1,-7.5,-46.8,6.5,nt,3.8,-35.5
O=S1(=O)C=C(Sc2nnc(-c3ccccc3)o2)c2ccccc21,2.3,-6.7,-7.4,0.2,11.6,10.1,5.6
COc1cc2[nH]c(=O)n(CCC(=O)N3CCC(N4CCCCC4)CC3)c(=O)c2cc1OC,-10.2,-9.8,1.5,11.7,0.3,-2.3,-0.1

# Five entries from above, with tabs.
canonical_smiles	RBBP9 inh	MDM2 E3 inh	NPY2 pot ag	NPY1 pot ag	NPY-Y1 antag	p97 ATPase inh	Hck-Nef inh
O=[N+]([O-])c1ccc(N/N=C\c2cccn2-c2ccccc2)nc1	-1.5	-18.8	24.2	30.2	-2.2	1.9	-0.3
COC(=O)c1cn(NC(=O)C2CCC(C(C)(C)C)CC2)c(=O)c2ccccc12 (configuration not stated)	-4.2	-1.8	-10.5	2.2	-6.2	-0.1	0.3
CCC(=O)NC(=S)Nc1ccc(S(=O)(=O)NC(C)=O)cc1	-6.3	-25.6	14.5	34.0	-0.8	3.5	-1.9
CC(=O)N1CC(=O)N(OCc2ccccc2)C1c1ccc(Cl)cc1Cl (configuration not stated)	-6.0	-9.2	8.2	15.1	1.7	-0.5	0.8
CCOc1ccc(N2CC(C(=O)NC(C)C)CC2=O)cc1 (configuration not stated)	-7.0	0.4	-4.8	6.8	4.1	9.8	1.8

# Three entries from above, arranged by the number in Hck-Nef inh, highest first.
structure,Hck-Nef inh
COC(=O)C1(S(=O)(=O)c2ccc(C)cc2)CCOCC1,7.3
CCOc1ccc(N2CC(C(=O)NC(C)C)CC2=O)cc1 (configuration not stated),1.8
O=C(N/N=C/c1ccccn1)c1sc2ccccc2c1Cl,-35.5

# A portion of the library; the hit share may differ from the screen's.
